Compound activity deposited in PubChem by National Center for Advancing Translational Sciences (NCATS).
TRPML1 ag = qHTS for Agonists of the Human Mucolipin Transient Receptor Potential 1 (TRPML1) | Mucolipin-1 (Homo sapiens), Q9GZU1 | TRPML1-expressing cells, Ca2+ dye fluorescence, FDSS; host cell line not named in the record; reference of the full effect not given here | activation, % (test concentration not listed) | actives 0.12% (n = 410,000); in the data active = activation above about 50%; inconclusive = about 30% to 50%; inactive = below about 30%; further: 0% is about no effect; the text of the record puts the active cut at 80%
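Tetracycline-induced TRPML1-DL cells are seeded and incubated overnight before loading with a no-wash Ca2+ dye and quencher. Agonist activity is taken from the 110 s fluorescence read following compound pin-transfer on an FDSS, before EC80 54-4 challenge.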
Six1-Eya2 inh = qHTS Assay for Inhibitors of the Six1/Eya2 Interaction; Homeobox protein SIX1 (Homo sapiens) + Protein phosphatase EYA2 (Homo sapiens), …; AlphaScreen GST-Six1/His-Eya2 binding, biochemical; hits give low values; control for the full effect not named in the record; activity change, % (no concentration beside the values); actives 0.56% (n = 360,000); in the data active = activity change below about -65%; inconclusive = about -30% to -65%; inactive = above about -30%; further: on the % scale 0 is the no-effect control and ±100 the full control effect; compound concentration not given in the record
Target sequence (O00167 whole entry, looked up): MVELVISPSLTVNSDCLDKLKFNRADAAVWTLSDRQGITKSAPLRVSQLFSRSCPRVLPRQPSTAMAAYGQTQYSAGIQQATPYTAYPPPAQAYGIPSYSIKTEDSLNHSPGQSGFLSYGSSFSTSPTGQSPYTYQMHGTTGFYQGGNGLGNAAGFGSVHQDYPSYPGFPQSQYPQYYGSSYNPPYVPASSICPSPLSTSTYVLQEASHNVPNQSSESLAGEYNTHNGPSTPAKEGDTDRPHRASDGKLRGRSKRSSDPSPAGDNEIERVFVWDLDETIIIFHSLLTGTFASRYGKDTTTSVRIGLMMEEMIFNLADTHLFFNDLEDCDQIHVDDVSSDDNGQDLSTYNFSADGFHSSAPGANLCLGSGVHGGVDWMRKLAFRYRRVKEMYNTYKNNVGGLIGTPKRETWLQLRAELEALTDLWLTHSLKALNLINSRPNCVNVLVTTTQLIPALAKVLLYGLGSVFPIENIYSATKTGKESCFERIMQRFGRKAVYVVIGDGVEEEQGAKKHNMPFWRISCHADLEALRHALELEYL
Target sequence (Q15475 whole entry, looked up): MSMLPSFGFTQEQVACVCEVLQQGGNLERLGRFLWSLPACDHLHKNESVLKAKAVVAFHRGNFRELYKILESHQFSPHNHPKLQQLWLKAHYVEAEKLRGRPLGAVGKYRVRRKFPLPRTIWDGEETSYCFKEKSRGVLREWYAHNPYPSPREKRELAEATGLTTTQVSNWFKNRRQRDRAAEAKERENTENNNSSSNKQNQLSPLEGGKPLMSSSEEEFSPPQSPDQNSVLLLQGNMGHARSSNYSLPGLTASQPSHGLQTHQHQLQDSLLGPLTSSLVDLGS
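Homogeneous AlphaScreen proximity assay pairing GST-Six1 with His-tagged Eya2 (added as 5X mix: 250 nM and 500 nM) in 50 mM Tris pH 8.0, 300 mM NaCl, 1 mM TCEP. Glutathione donor and nickel acceptor beads; 1 h, 37 °C, dark.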
PINK1 expr mod = A Quantitative High throughput Screen to Identify Chemical Modulators of PINK1 Expression. PINK1 immunofluorescence, high-content cytometry, 24 h. Potency, µM (highest dose often 76.6 µM), inactives show top-dose activation (PINK1 increase), actives largely listed as activators. actives 0.2% (n = 410,000). AID 624263, 2012; active = well fitted activation curve with a large enough effect; inconclusive = small, poorly fitted or top-dose-only effect; inactive = flat fitted curve, though single readings scatter; cell line not stated here;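 further: potency means the concentration at half of the fitted maximal effect; % of control where 0% means no effect; nearly all actives have a fitted effect of over 65% in size; a mitochondrial uncoupler was the plate control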
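Stable cell line, 250 cells/well, 12 h attachment; compounds pinned at 5 concentrations, 24 h; CCCP control. Fixed with nuclear dye, primary antibodies 12 h at 10 degrees C, secondary plus cell stain; laser-scanning cytometer read.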
TRPML1 inh = qHTS for Inhibitors of the Human Mucolipin Transient Receptor Potential 1 (TRPML1). Mucolipin-1 (Homo sapiens), Q9GZU1. TRPML1-inducible cells, Ca2+ dye fluorescence, FDSS; hits give low values; inhibition of EC80 agonist-evoked calcium signal. activity change, negative = inhibition, % (test concentration not listed). actives 0.02% (n = 390,000); in the data active means activity change below about -50%; inconclusive means about -30% to -50%; inactive means above about -30%;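 further: stimulus is agonist 54-4 at its EC80 concentration; on the % scale 0 is the no-effect control and ±100 the full control effect; compound concentration not given in the record; the text of the record puts the active cut at -80%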
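TRPML1-DL cells, Tet-induced overnight (~16 h, 37 °C) at 1,500 cells/well, were loaded with Ca8 no-wash dye plus quencher for 45-90 min at room temperature. Compounds were pinned during FDSS kinetic reading; agonist 54-4 at EC80 (4 uM final) then added.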
D2 potentiator = Beta-Arrestin HTS for Positive Allosteric Modulators of the Human D2 Dopamine Receptor: Potentiators; AID 624464, 2012; potentiation, % (concentration not given with the values); actives 0.23% (n = 360,000); DiscoveRx D2 beta-arrestin cells, luminescence, 90 min; 100% = 57 uM dopamine signal; active = potentiation of 50% or more; inconclusive = 30% to 50%; inactive = 30% or less;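 further: compound concentration not given in the record; tested on top of an EC20 dose of dopamine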
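PathHunter D2 cells, attached overnight at 37 deg C, received compound in DMSO plus dopamine at EC20 (50 nM final) for 90 min at 37 deg C. Beta-arrestin recruitment was read as luminescence after 1 h with detection reagent at ambient temperature.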
D2 ag = Beta-Arrestin HTS for Positive Allosteric Modulators of the Human D2 Dopamine Receptor: Agonists; DiscoveRx PathHunter D2 beta-arrestin, luminescence, 90 min; 100% = 57 uM dopamine signal; actives 0.084% (n = 360,000); activation, % (concentration not given with the values); D(2) dopamine receptor (Homo sapiens), P14416; in the data active = activation above about 40%; inconclusive = about 15% to 40%; inactive = below about 15%; further: compound concentration not given in the record; the text of the record calls up to 30% inactive
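Agonist mode: compounds alone added to overnight-plated D2 PathHunter cells for 90 min at 37 C, with 57 uM final dopamine (EC100) defining full response. Beta-arrestin recruitment detected by chemiluminescent reagent, read after 1 h at ambient temperature.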
Starred values were filed as active, the others as inactive; ? = inconclusive; nt = not tested or not shown; [ ] = remark or other dose. Outcome played no part in choosing rows; any-hit rate near 1%.

SMILES | TRPML1 ag | Six1-Eya2 inh | PINK1 expr mod | TRPML1 inh | D2 potentiator | D2 ag
N#Cc1c(NC(=O)c2ccccc2Cl)n(Cc2ccccc2)c2nc3ccccc3nc12 | 3.4 | 14 | ? | -2 | 8 | -1.7
O=C(Cn1ncc2c3ccccc3n(Cc3ccccc3)c2c1=O)NCCN1CCOCC1 | -0.4 | -3 | 0.4% | 5 | -14 | -3.2
Cc1csc(NC(C)c2nc3cc(Cl)c(Cl)cc3n2CCCO)n1 (stereo unspecified) | 0.0 | -8 | 1.7% | 7 | -19 | -3.9
Cc1cccc(NC(=O)NC2CC(=O)N(c3ccc4c(c3)OCCO4)C2)n1 (stereo unspecified) | 0.9 | -21 | -0.2% | 2 | 2 | 0.5
CC(C)Oc1ccc(CC(=O)NNC(=S)Nc2ccccc2)cc1 | -0.6 | 4 | -0.3% | 9 | -21 | -9.2
CCCCNC(=O)c1ccc2c(=O)n(-c3ccccc3)c(=O)[nH]c2c1 | -0.7 | nt | 0.1% | 2 | nt | nt
CCCCSc1nc2c(c(=O)[nH]1)CCC2 | 1.2 | 4 | nt | 0 | -17 | -0.1
O=C(Cn1cnc2c(nnn2Cc2ccc(F)cc2)c1=O)NC1CCCC1 | 0.1 | 2 | 4.5%[38.3 µM] | -3 | -4 | 0.0
CCOC(=O)COc1ccc(-c2nnn(CC(=O)Nc3ccccc3)n2)cc1 | 2.9 | nt | 2.2% | 13 | nt | nt
Cc1c(C(=O)Nc2ccc3c(c2)CCC3)cccc1[N+](=O)[O-] | -0.1 | -3 | -0.8% | -28 | -5 | -2.7
CC1=C(C(=O)Nc2ccc(C)cc2C)C(c2cc(Br)ccc2F)n2ncc(C(=O)Nc3ccc(C)cc3)c2N1 (stereo unspecified) | 1.1 | nt | 3.0% | 2 | nt | nt
Oc1ccc(/C=N/Nc2nc(-c3ccccc3F)nc3ccccc23)c(O)c1 | 0.4 | -72* | 2.0% | -9 | -9 | 9.5
O=C(/C=C/c1ccc2c(c1)OCO2)c1ccc(O)cc1O | 1.6 | 0 | 3.0% | 2 | -14 | -4.4
CCN(CC)CCNC(=O)c1ccc(NS(=O)(=O)c2ccc3c(c2)OCCO3)cc1 | 0.0 | 7 | 1.4% | 15 | -22 | 3.8
Cc1cc(C)n2nc(C(=O)OCC(=O)Nc3ccc(C)c(S(=O)(=O)N(C)C)c3)nc2n1 | 1.2 | 0 | 1.3% | 1 | 10 | -2.5
O=C(CN1CCN(c2cccc(Cl)n2)CC1)N1CC(O)CO1 (stereo unspecified) | -0.9 | 1 | 2.0% | 2 | -8 | 0.0
O=C(CSc1nccc(=O)[nH]1)NC1CCCCCC1 | -0.3 | 0 | 0.3% | -20 | 3 | -2.0
Cc1cccc(C(=O)Nc2cc3nn(-c4ccc(C(C)C)cc4)nc3cc2C)c1 | 3.6 | nt | -1.0% | 4 | nt | nt
Clc1ccc(-c2nc3nc4ccccc4nc3n2Cc2ccco2)cc1 | 0.9 | 4 | 1.2% | -1 | -12 | -2.2
O=[N+]([O-])c1cccc(N/N=C/c2cccc3ccccc23)c1 | 1.5 | -15 | 4.1% | 0 | 6 | -2.0
CCOc1ccc(NC(=O)CN2CCN(CC(=O)Nc3ccccc3OCC)CC2)cc1 | 1.1 | nt | -1.1% | 14 | nt | nt
Cc1cn([C@H]2C[C@H](O)[C@@H](CNCc3cc(Br)ccc3OCc3ccccc3)O2)c(=O)[nH]c1=O | 0.0 | 0 | 2.7% | -5 | -3 | -7.2
O=C(CCNC(=O)c1ccc(Br)cc1)Nc1nc2ccccc2[nH]1 | -0.7 | -5 | 2.5% | 21 | 2 | -1.9
COc1ccc(CCNC(=O)Nc2cccc([N+](=O)[O-])c2)cc1OC | 0.4 | -6 | 1.1% | -14 | -17 | -3.9
CNC(=S)NNC(=O)c1c(C)nc2cc(C)ccn12 | 1.0 | 3 | -1.1% | 8 | -5 | -5.7
The listing continues:
SMILES | TRPML1 ag | Six1-Eya2 inh | PINK1 expr mod | TRPML1 inh | D2 potentiator | D2 ag
Cc1ccccc1CN1CCNC1=O | -0.1 | 8 | -0.3%[38.3 µM] | -6 | -6 | -3.4
CC12CCC(=O)N1C(C(=O)Nc1nnc(SCc3ccccc3F)s1)CS2 (stereo unspecified) | 0.2 | 4 | 1.1% | 40 | 2 | -5.1
CCCc1nc2c(=O)n(C)c(=O)[nH]c2n1CCC | -0.5 | 7 | -0.6% | 23 | -14 | 0.3
O=C1CCN(C(=O)/C=C/c2ccccc2)c2ccccc21 | 0.0 | 1 | 1.2% | -3 | -3 | 10
COc1ccccc1NC(=S)NCc1ccc2c(c1)OCO2 | 0.0 | -1 | 0.2% | -1 | -8 | -3.3
O=C(CSc1nnc(NC(=O)c2ccccc2C(=O)O)s1)Nc1ccccc1Cl | 0.2 | 19 | 1.1% | -1 | 3 | -0.7
Cc1c(Cl)cccc1-n1nc(C)c2c(C)cc(=O)n(CC(=O)N3CCCc4ccccc43)c21 | 3.3 | nt | 0.9% | 85 | nt | nt
Cc1nn(C)c(C)c1C(C)NC(=O)c1ccc(OC2CCN(Cc3ccccn3)CC2)cc1 (stereo unspecified) | 0.2 | 1 | -1.4% | 6 | -7 | -0.5
Cn1ncc(C(=O)N2CCN(c3ccc(F)cc3)CC2)c1C1CCN(C(=O)OC(C)(C)C)CC1 | 0.8 | nt | -0.3% | -10 | nt | nt
COc1ccc(C(=O)N2CCC(C(=O)N3CCN(c4ccc(OC)cc4)CC3)CC2)cc1 | 0.0 | -6 | -0.3% | 6 | 2 | -1.1
COc1cc(N2CCCC2)c(OC)cc1/C=C(/C#N)c1ccc(F)cc1 | 6.7 | -78* | 2.8% | -10 | -12 | -0.7
Cc1ccc(N2C(=O)C3Sc4[nH]c(=O)sc4C(c4ccccc4)C3C2=O)cc1 (stereo unspecified) | -0.6 | -3 | -0.9% | 27 | -4 | -0.9
O=C(OC(C(=O)NC1CCCC1)c1ccncc1)C1=Cc2ccccc2OC1 (stereo unspecified) | 1.7 | -2 | 0.1% | -5 | -12 | -2.5
Cc1ccc(S(=O)(=O)NCCC(=O)N2CC(C)OC(C)C2)cc1C (stereo unspecified) | -0.3 | 4 | 2.3% | -13 | ? | -0.5
O=C(O)c1ccc(Cl)c(S(=O)(=O)Nc2ccccc2C(=O)Nc2ccc(Cl)cc2)c1 | 0.5 | ? | -0.2% | 7 | -1 | -5.2
Nc1nc2n(n1)C(c1ccco1)CC(c1ccc(Cl)cc1Cl)N2 (stereo unspecified) | 2.8 | 12 | 0.8% | -11 | -1 | -1.6
COCc1nnc(NC(=O)c2ccc(S(=O)(=O)N(C)c3ccccc3)cc2)o1 | -0.6 | -20 | 3.5% | 0 | -12 | -7.6
O=C1NC2(CCCCC2)OC12CCCCC2 | -0.4 | -6 | -1.6% | 28 | -2 | -2.6
CCN(c1ccc(C)cc1C)S(=O)(=O)c1nnc(NC(=O)c2ccco2)s1 | -0.7 | -7 | 1.8% | 14 | -26 | 6.3
COc1ccc(N2CC(NC(=O)C(c3ccccc3)c3ccccc3)CC2=O)cc1 (stereo unspecified) | 0.2 | nt | 0.0% | -11 | nt | nt
Cn1nnc(C(O)CN2CCOCC2)n1 (stereo unspecified) | -0.3 | 9 | 2.2% | -12 | -7 | 2.3
COc1ccccc1CNc1nc2ccc(C)cc2n2nnnc12 | 1.1 | nt | 1.0% | 5 | nt | nt
COc1ccc(S(=O)(=O)N2CCN(C(=O)c3cccc(Cl)c3)CC2)cc1 | -0.9 | 3 | 1.7% | -3 | 1 | 0.3
COc1cccc(NC(=O)CN2C(=O)NC3(CCCCCC3)C2=O)c1 | -0.5 | -19 | -3.1% | -19 | -4 | 3.0
O=C(Nc1cccc2c1C(=O)NC2=O)c1ccc(N2C(=O)CCC2=O)cc1 | 1.1 | 3 | 2.8% | 11 | -4 | -3.5
Next section
SMILES | TRPML1 ag | Six1-Eya2 inh | PINK1 expr mod | TRPML1 inh | D2 potentiator | D2 ag
CCCc1cc(Nc2cccc(OC)c2)n2ncnc2n1 | 0.9 | -1 | -0.4%[38.3 µM] | 4 | 2 | -3.2
O=C(NCc1ccccc1)C(c1ccncc1)N(C(=O)c1csnn1)c1ccccc1F (stereo unspecified) | 1.4 | 7 | -1.2% | -6 | 9 | 1.2
Cc1cccc(OCCCn2c(CO)nc3ccccc32)c1 | 1.1 | 4 | 0.4% | -13 | -6 | -3.4
Cc1cccc(NC(=O)Cn2c(=O)n(CC3CCC(C(=O)NCCc4ccccc4)CC3)c(=O)c3ccccc32)c1C (stereo unspecified) | -0.7 | nt | 0.0% | -11 | nt | nt
COCCn1c(Sc2ccccc2)nc2c1c(=O)[nH]c(=O)n2C | -0.3 | 1 | -1.7% | 21 | -15 | -1.4
CCOC(=O)C1CCN(S(=O)(=O)CCNC(=O)c2ccccc2)CC1 | -0.8 | -3 | 1.5% | 5 | -4 | 3.7
Cc1ccc(-n2c(SCC(=O)c3c(N)n(C)c(=O)n(C)c3=O)nc3sc4c(c3c2=O)CCCC4)c(C)c1 | -0.1 | -3 | -2.0% | 22 | -17 | -1.7
Cc1nn(CC(=O)Nc2cccc(Cl)c2)c(=O)c2cc(-c3ccccc3)nn12 | 0.4 | 11 | 5.2% | 1 | 3 | -3.1
O=C(N/N=C/c1ccc(OCC(=O)N2CCCC2)cc1)C(=O)NC1CC1 | 0.3 | 4 | 0.6% | -7 | -7 | 0.4
O=C(CN1C(=O)S/C(=C\c2ccccc2)C1=O)Nc1cc([N+](=O)[O-])ccc1O | -0.2 | -8 | 2.8% | -4 | -5 | -2.3

Record cards, from the list above. Order of screens: TRPML1 ag	Six1-Eya2 inh	PINK1 expr mod	TRPML1 inh	D2 potentiator	D2 ag
Cc1cccc(NC(=O)Cn2c(=O)n(CC3CCC(C(=O)NCCc4ccccc4)CC3)c(=O)c3ccccc32)c1C (stereo unspecified) is listed as -0.7	nt	0.0%	-11	nt	nt
Cc1ccc(-n2c(SCC(=O)c3c(N)n(C)c(=O)n(C)c3=O)nc3sc4c(c3c2=O)CCCC4)c(C)c1 is listed as -0.1	-3	-2.0%	22	-17	-1.7
O=C(NCc1ccccc1)C(c1ccncc1)N(C(=O)c1csnn1)c1ccccc1F (stereo unspecified) is listed as 1.4	7	-1.2%	-6	9	1.2
O=C(CN1C(=O)S/C(=C\c2ccccc2)C1=O)Nc1cc([N+](=O)[O-])ccc1O is listed as -0.2	-8	2.8%	-4	-5	-2.3
COCCn1c(Sc2ccccc2)nc2c1c(=O)[nH]c(=O)n2C is listed as -0.3	1	-1.7%	21	-15	-1.4
